UCH37 DUB inh – inhibitors of human deubiquitinating enzyme UCH37; purified proteasome/UCH37, Ub-AMC cleavage fluorescence; Q9Y5K5; actives 0.33% (n = 330,000); inhibition, % (test concentration not listed); AID 588478;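 active = mean of two replicates above 20%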;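 note: 0% = compound-free wells with enzyme and 100% = wells lacking proteasome; stock transfer was 100 nL into about 20 µL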
Target sequence (Q9Y5K5 whole entry, looked up): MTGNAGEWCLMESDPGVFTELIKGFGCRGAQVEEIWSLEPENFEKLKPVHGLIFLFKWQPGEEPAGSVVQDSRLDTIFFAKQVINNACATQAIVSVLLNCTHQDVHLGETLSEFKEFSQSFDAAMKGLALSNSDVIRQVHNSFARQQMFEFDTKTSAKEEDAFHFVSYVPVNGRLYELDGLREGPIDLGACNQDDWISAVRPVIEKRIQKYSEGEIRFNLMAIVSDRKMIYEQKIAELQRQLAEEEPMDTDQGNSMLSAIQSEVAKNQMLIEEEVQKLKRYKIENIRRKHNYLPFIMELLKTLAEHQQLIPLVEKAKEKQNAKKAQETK
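Assay system: Proteasome-bound UCH37. Buffer or medium: pH 7.4 Tris-HCl (50 mM) with ovalbumin, ATP-MgCl2, DTT. Incubation: 30 min preincubation with enzyme, 25 min cleavage at room temperature. Measured by: fluorescence, ex 355 nm, em 460 nm. Read-out basis: percent inhibition. Control set: wells without proteasome as full block, compound-free enzyme plus substrate as uninhibited.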
FGF22 binding – shifts melting point of recombinant human FGF22 | Q9HCT0 | recombinant FGF22 thermal shift, SYPRO orange fluorescence; percent of sucrose octasulfate shift, DMSO zero | calls only at 9.99 µM | actives 1.5% (n = 340,000);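 active = melting point raised past a set limit in the mean and every replicate; inconclusive = no clear call; three in four hits are not shown here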
B2AR ag – human beta-2 adrenergic receptor agonism by FAP; actives 0.43% (n = 340,000); Am2.2-beta2AR cells, FAP receptor internalization, flow cytometry; reference of the scale not given here; P07550; response, % (test concentration not listed); AID 504454;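 active = response above a set limit, near 3 SD of response in nonfluorescent compounds, cut at about 42% in these data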;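 note: stock transfer was 100 nL into about 11 µL; a reference agonist was the positive control; negative values mostly stem from fluorescent compounds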
Target sequence (P07550 whole entry, looked up): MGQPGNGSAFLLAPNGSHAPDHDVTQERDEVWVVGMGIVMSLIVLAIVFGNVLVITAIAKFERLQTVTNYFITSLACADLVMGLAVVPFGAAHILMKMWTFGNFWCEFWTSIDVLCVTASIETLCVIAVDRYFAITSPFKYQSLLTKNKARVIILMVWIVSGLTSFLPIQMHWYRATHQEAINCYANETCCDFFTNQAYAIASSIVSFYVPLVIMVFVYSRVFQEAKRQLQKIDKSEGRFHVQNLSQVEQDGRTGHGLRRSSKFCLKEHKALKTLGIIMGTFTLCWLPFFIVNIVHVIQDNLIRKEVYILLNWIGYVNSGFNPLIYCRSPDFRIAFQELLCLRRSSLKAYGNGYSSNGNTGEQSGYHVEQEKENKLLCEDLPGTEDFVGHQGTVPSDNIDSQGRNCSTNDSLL
Ecoli rRNA inh – inhibitors of bacterial rRNA selective over humanized ribosomes; E. coli WT GFP vs humanized-ribosome RFP mutants, fluorescence, 24 h; hits give low values; DMSO median 0, no signal -100; GFP signal change (wild-type ribosome), % (no concentration beside the values); actives 1.6% (n = 350,000);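 active = significant combined selectivity score with lowered wild-type GFP, culture density cut under 30%, mutant RFP and density less affected; inactive = any of these conditions unmet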; note: one replicate is shown; some compounds called inactive have numbers as strong as hits
ALR H2O2 inh – human ALR oxidase inhibition via reduced H2O2; AID 485317; actives 3.8% (n = 290,000); P55789; inhibition, % (test concentration not listed); purified ALR, DTT oxidation, H2O2 HRP-luminol luminescence;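 active = mean and each replicate at 75% or more; inconclusive = only one of the two met; inactive = neither met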;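 note: stock transfer was 7.5 nL into about 7.5 µL; 0% = neutral wells and 100% = wells with inactivated enzyme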
Target sequence (P55789 whole entry, looked up): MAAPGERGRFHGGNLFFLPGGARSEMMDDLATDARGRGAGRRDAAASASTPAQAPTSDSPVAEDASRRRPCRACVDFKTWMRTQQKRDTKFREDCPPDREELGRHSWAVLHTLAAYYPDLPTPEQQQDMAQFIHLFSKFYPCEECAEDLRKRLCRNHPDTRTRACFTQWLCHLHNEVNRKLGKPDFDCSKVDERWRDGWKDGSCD
HNF4A DNA FP – change in binding of human HNF4 alpha to DNA; HNF4a-FITC DNA binding, fluorescence polarization, 1 h; activity change, % at 10 µM; actives 0.3% (n = 360,000); AID 1224865; in the data active = activity change above about 30%, passing the limit was not always enough;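 note: controls were the assay level and a saturating level of protein; the project sought stronger binding though the title names inhibitors; some compounds called inactive have numbers as strong as hits; positive values seem to mean higher polarization but the record does not say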
Ecoli growth – blocks Escherichia coli growth | OD600, 23 h; hits give low values | OD600 absorbance (no concentration beside the values) | actives 0.21% (n = 330,000);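 active = OD600 absorbance below the run mean of sample wells minus 3.6 SD, in any replicate, cut at about 0.56 in these data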;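 note: stock transfer was 300 nL into about 60 µL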
Ecoli rRNA inh OD600 – second read-out of Ecoli rRNA inh, no call of its own (marks repeat the call); OD600 change, %; measured here: OD600 growth;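 optical density of the mix in the first replicate; 0 = DMSO median and -100 = no signal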
Ecoli rRNA inh RFP – second read-out of Ecoli rRNA inh, no call of its own (marks repeat the call); RFP signal change, %; measured here: RFP humanized mutant strains;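 first replicate; 0 = DMSO median and -100 = no signal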
Starred values were filed as active, the others as inactive; i = inactive; u = inconclusive; x = no result given. Only part of the results is shown; the hit share may differ from the screen's.

no.	UCH37 DUB inh	FGF22 binding	B2AR ag	Ecoli rRNA inh	Ecoli rRNA inh OD600	Ecoli rRNA inh RFP	ALR H2O2 inh	HNF4A DNA FP	Ecoli growth	Molecule
1	1.2	x	1	x	x	x	x	-0.3	0.7	O=C(C1CCC(Cn2c(=S)[nH]c3ccccc3c2=O)CC1)N1CCN(c2ccccc2)CC1 (configuration not stated)
2	16	i	10	0	1	-5.1	99*	13	0.67	CCOC1=C/C(=C/c2c(N)n3nc(CC(=O)N4CCCC4)sc3nc2=O)C=CC1=O
3	1.4	i	1	-19	-24	-5.6	-4	-1.7	0.64	Cc1cccc(NC(=O)CSCC(=O)Nc2cc(Cl)ccc2N2CCOCC2)c1
4	-11	i	2	13	12	1.2	x	0.1	0.72	CSc1nc(N)c2cn[nH]c2n1
5	x	i	x	-2	12	7.3	x	-2.9	x	CC(C)C[C@H]1CN(CCCC[C@@H]2CNC(=O)C(=O)N2CCc2ccccc2)C(=O)C(=O)N1CCc1ccc(O)cc1
6	0.1	i	-4	-1	-32	3.7	-14	1.2	0.67	Cc1nc2ccc(S(=O)(=O)Nc3cccc(-c4nc5cccnc5s4)c3C)cc2s1
7	-2.3	i	-4	3	18	-1.3	-4	-1.7	0.72	O=C(Nc1cccc(S(=O)(=O)N2CCOCC2)c1)c1cnn2c(C(F)F)cc(-c3ccccc3)nc12
8	0.6	x	-6	x	x	x	x	3.8	0.7	CS(=O)(=O)N(CC(=O)NC1CC2CCC1C2)c1cccc(C(F)(F)F)c1 (configuration not stated)
9	3.8	i	-6	-9	-13	3.7	x	0.5	0.71	O=C(Cc1ccc(F)cc1)N[C@@H]1c2ccccc2CC[C@@H]1O
10	-2.6	i	2	4	4	2.3	-12	-2.5	0.68	Nc1cccnc1S(=O)(=O)c1cccc(C(F)(F)F)c1
11	-98	i	-1	6	9	-0.7	x	-0.1	0.67	COc1ccc2oc(C(=O)OCC(=O)N3CCN(C(C)=O)CC3)c(C)c2c1
12	2.6	x	-1	x	x	x	2	-1.3	0.71	COc1cccc(C2C3(C#N)C(N)=NC(OC)(OC)C23C#N)c1 (configuration not stated)
13	7.4	i	-4	-12	-23	12	46	-1.2	0.67	COc1ccc(N(CC(=O)N2CCN(c3cccc(C)c3)C(C)C2)S(=O)(=O)c2c(C)n[nH]c2C)cc1 (configuration not stated)
14	0.2	i	3	14	21	-0.5	-2	-2.9	0.72	COC(=O)c1ccc(C(=O)Nc2ccc(C(C)C)cc2N)cc1
15	1.1	i	-10	12	3	-3.3	x	2.3	0.68	Cc1ccc(S(=O)(=O)Nc2cccnc2)cc1C
16	1.5	x	8	x	x	x	-19	-2.5	x	CN(C)S(=O)(=O)c1ccc(/C(O)=C2/C(=O)C(=O)N(Cc3cccnc3)C2c2ccco2)cc1 (configuration not stated)
17	1.7	i	-3	6	10	-4.1	98*	-5.5	0.69	CCN(CC)C(=O)CC(c1ccc(N(C)C)cc1)c1c(OC)cc(OC)c2ccc(=O)oc12 (configuration not stated)
18	4.4	x	-2	x	x	x	0	-0.8	0.71	Clc1ccc(-c2nc3ncccn3c2Nc2ccc3c(c2)OCO3)cc1
19	1.7	x	13	6	-6	-1.2	x	6.1	0.69	CN(C(=O)c1ccc(NC(=O)Cc2ccc(NC(=O)C3CCN(C(=O)c4ccccc4)CC3)cc2)cc1)C1CCCC1
20	-0.4	x	29	x	x	x	x	1.9	0.77	CC1=C(OC(=O)c2ccc(Br)cc2)C(C)(C)C(c2ccccc2)OC1=O (configuration not stated)
21	1.1	i	4	-21	-23	0.7	99*	0.5	0.68	Cc1ccc(N2CCN(S(=O)(=O)c3cccs3)CC2C)cc1 (configuration not stated)
22	8.7	i	-2	11	11	-3.1	48	-4.5	0.67	Cc1ccc(N=Nc2c(N)nn3c(N)c(C#N)c(C)nc23)cc1
23	2.2	i	5	-25*	-1.3*	-1.6*	-6	-1.1	0.71	Cc1cc(C(=O)COC(=O)Cc2n[nH]c(=O)c3ccccc23)c(C)n1-c1ccc2c(c1)OCO2
24	1.9	i	7	8	2	-2.1	-2	-5.5	0.64	COc1ccc(C(=O)NCC(=O)NCc2cc(=O)n(C)c(=O)n2C)cc1
25	x	x	1	x	x	x	-2	14	x	CCC1CCCCN1c1ccc([N+](=O)[O-])cc1/C=N/NC(=O)Cn1c2ccccc2c(=O)c2ccccc21 (configuration not stated)
26	x	i	5	0	-16	-0.1	-9	-1.0	x	CC(C)NC(=O)CSc1ccccc1C(=O)NNC(=O)Cn1ccc(C(F)(F)F)n1
27	-3.6	i	-12	1	1	-0.1	-17	0.7	0.69	COC(=O)C(CCSC)NC(=O)c1cc2c(n(-c3ccc(C)cc3)c1=O)CCCC2=O (configuration not stated)
28	0.4	x	-2	11	-4	0.1	-4	1.2	0.69	CCCCC(=O)Nc1ccccc1N1CCOCC1
29	3.4	i	-4	0	-6	3.8	-8	1.5	0.64	Clc1ccc(CN2C3=NCCCN3c3ccccc32)cc1Cl
30	0.0	i	3	11	13	1.3	-5	-3.4	0.54	COc1cccc(C(=O)NCCN2CCN(c3ccc(Cl)cc3)CC2)c1

Overlap with the part before: six entries; new compounds follow.
no.	UCH37 DUB inh	FGF22 binding	B2AR ag	Ecoli rRNA inh	Ecoli rRNA inh OD600	Ecoli rRNA inh RFP	ALR H2O2 inh	HNF4A DNA FP	Ecoli growth	Molecule
25	x	x	1	x	x	x	-2	14	x	CCC1CCCCN1c1ccc([N+](=O)[O-])cc1/C=N/NC(=O)Cn1c2ccccc2c(=O)c2ccccc21 (configuration not stated)
26	x	i	5	0	-16	-0.1	-9	-1.0	x	CC(C)NC(=O)CSc1ccccc1C(=O)NNC(=O)Cn1ccc(C(F)(F)F)n1
27	-3.6	i	-12	1	1	-0.1	-17	0.7	0.69	COC(=O)C(CCSC)NC(=O)c1cc2c(n(-c3ccc(C)cc3)c1=O)CCCC2=O (configuration not stated)
28	0.4	x	-2	11	-4	0.1	-4	1.2	0.69	CCCCC(=O)Nc1ccccc1N1CCOCC1
29	3.4	i	-4	0	-6	3.8	-8	1.5	0.64	Clc1ccc(CN2C3=NCCCN3c3ccccc32)cc1Cl
30	0.0	i	3	11	13	1.3	-5	-3.4	0.54	COc1cccc(C(=O)NCCN2CCN(c3ccc(Cl)cc3)CC2)c1
31	1.5	x	-17	x	x	x	3	1.0	0.68	O=C(CCCn1c(=O)[nH]c2ccsc2c1=O)N1CCCCC1
32	4.2	i	-4	-5	-18	-9.6	-10	1.4	0.69	CCOC(=O)c1cc(-c2ccccc2C)nn1Cc1cc(C)no1
33	-10	i	-17	3	0	3.0	-5	1.4	0.7	CCOc1ccccc1CN1CCN(Cc2ccc3cccc(OC)c3n2)CC1CCO (configuration not stated)
34	0.5	x	47*	x	x	x	x	-3.0	0.69	Cc1ccc(NC(=O)C(c2ccc(Cl)cc2)N2CCCCC2)cc1 (configuration not stated)
35	3.4	x	1	x	x	x	2	-1.5	0.7	CCOC(=O)c1nnc(-c2ccccc2)nc1NCc1ccc(Cl)cc1
36	x	i	x	-16	-19	3.6	x	0.1	x	COC(=O)[C@]12CCCCC=C1N(Cc1ccc3c(c1)OCO3)C(=O)[C@H](CC(=O)NCc1ccc(C)o1)C2
37	-0.5	i	0	4	0	-0.1	-6	3.5	0.64	CS(=O)c1ccc(-n2c(=O)n(Cc3ccccc3)c(=O)c3[nH]cnc32)cc1 (configuration not stated)
38	-3.7	x	1	x	x	x	u	-4.5	0.69	CC1Cc2ccccc2N1Cc1cc(=O)n2ccsc2n1 (configuration not stated)
39	-2.7	i	-7	23	23	1.0	29	-7.1	0.71	CCOC(=O)c1ccc2c(c1)[n+](CC)c(C)n2-c1ccccc1
40	2.1	i	3	6	-10	-0.4	-4	1.9	0.68	Cc1ccccc1Nc1c(F)c(F)c(F)c(F)c1C(=O)O
41	9.4	x	-6	x	x	x	-6	0.2	0.72	COc1ccc(-n2nc([N+](=O)[O-])c(=NCCc3ccc(OC)c(OC)c3)n2O)cc1
42	x	i	-7	24	21	3.0	x	3.5	x	CC(C)C[C@@H](CNCC(=O)[C@H](C)NC(=O)c1[nH]cnc1C(=O)N[C@@H](C)CN)NC(=O)c1nc[nH]c1C(=O)N[C@@H](CO)C(=O)O
43	4.6	i	7	-8	-10	-4.4	38	3.8	0.66	S=c1[nH]nc(CCc2ccc(Cl)cc2)o1
44	3.0	i	3	5	14	-1.2	x	-1.5	0.67	CC(=O)OCC(=O)[C@@]1(O)CCC2C3CCC4=CC(=O)CCC4(C)C3C(=O)CC21C (some centres not stated)
45	7.2	i	-7	18	19	6.6	-33	0.0	0.7	COc1ccc(OC)c(NC(=O)Nc2cccnc2)c1
46	x	i	9	-10	-22	3.5	x	1.2	x	S=c1[nH]nc(C2CCCCC2)n1/N=C/c1ccccc1Br
47	0.4	i	4	7	13	-6.9	-2	-3.6	0.67	CCCCn1nnnc1NCc1cccc(OC)c1OC
48	1.7	i	-4	-2	-5	-0.8	0	0.6	0.67	Cc1cc(Cl)c2oc(C(=O)N3CCN(C4CCS(=O)(=O)C4)CC3)c(C)c2c1 (configuration not stated)
49	3.4	i	36	11	0	7.3	-3	9.2	0.68	Cc1ccc(NC(=S)N(CCCN2CCCC2)Cc2cccn2Cc2ccc(Cl)cc2)cc1C
50	-416	i	-5	-15	-25	-0.8	3	-0.7	0.66	COc1ccc2oc(=O)c(C(=O)N3CCN(C(=O)c4ccco4)CC3)cc2c1
51	-0.8	x	6	6	1	-2.4	-9	1.8	0.73	Cc1cc(CN(C)C(=O)CC2C(=O)NCCN2CC(c2ccccc2)c2ccccc2)on1 (configuration not stated)
52	1.5	i	-4	1	4	-0.8	4	1.1	0.62	O=C(NCc1cccc(C(F)(F)F)c1)c1ccc[nH]1
53	0.7	i	-3	8	8	-1.5	x	4.1	0.67	CN1CCN(C(=O)/C=C/c2ccc(C#N)cc2)CC1
54	-1.7	i	6	x	x	x	0	1.2	0.69	CC(C)[C@H](NC(=O)c1ccc(F)cc1)C(=O)N(C)Cc1cccs1
55	5.9	i	50*	4	7	-1.0	-1	-1.4	0.68	O=C(CCn1c(=O)oc2ccc(Cl)cc21)NCCCN1CCOCC1
56	5.7	i	-6	x	x	x	x	-3.4	0.66	Cc1cc(C(=O)COC(=O)c2cccc(NS(C)(=O)=O)c2)c(C)n1CC1CCCO1 (configuration not stated)
57	4.4	i	3	-3	-1	4.2	x	4.0	0.69	C[C@H](CO)N1C[C@H](C)[C@@H](CN(C)S(=O)(=O)c2ccc(F)cc2)Oc2c(NC(=O)Cc3ccccc3)cccc2C1=O
58	0.7	i	-9	8	8	0.9	-4	2.3	0.73	COc1ccc(Cl)cc1NC(=O)Nc1cnccn1
59	-76	x	4	x	x	x	55	2.1	0.65	CC(=O)c1sc(Nc2nc3ccc(F)cc3s2)nc1C
60	-1.5	x	-4	3	-5	3.5	-15	0.9	0.67	N#Cc1ccc(-c2cn(-c3ccccc3)c3[n+]2CCCS3)cc1
61	0.7	i	6	6	3	-1.2	x	0.2	0.74	O=C(CSc1nc2ccccc2c(=O)[nH]1)Nc1ccc(Br)cc1
62	1.0	x	-9	x	x	x	x	1.9	0.68	N#Cc1ccc(OCc2nnc(SCC(=O)N3CCCc4ccccc43)n2-c2ccccc2)cc1
63	x	i	x	10	-33	-7.0	x	-1.6	x	O=C(NCC(c1ccco1)N1CCN(c2ccccc2)CC1)C1CCCCC1 (configuration not stated)
64	x	i	x	-15	-24	0.4	x	0.0	x	CC(C)COC(=O)N1CCCCC1c1cc(C(=O)Nc2ccc3c(c2)OCO3)no1 (configuration not stated)

Screens from PubChem BioAssay.
